# Screening data (PubChem BioAssay)
# NS1 function inh: qHTS Assay for Inhibitors of Influenza NS1 Protein Function; actives 0.4% (n = 270,000); S. cerevisiae slowed by influenza A NS1, growth recovery by OD600; Potency, µM (highest dose often 46.1 µM), without a hit: top-dose activity, positive = more growth; AID 2326, 2010; active means well fitted rising curve with a large enough effect; inconclusive means small, poorly fitted or top-dose-only effect; inactive means no such curve, though single readings can be large or run the other way; further: nearly all actives have a fitted effect of over 50% in size
#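 Growth recovery, yeast-based: influenza A NS1 expressed in S. cerevisiae causes slow growth, and suppressors are detected by OD600. The parent strain without NS1 is used as positive control.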
# Cruzain inh noDet: qHTS Assay for Promiscuous and Specific Inhibitors of Cruzain (without detergent) | Cruzipain (Trypanosoma cruzi), P25779 | purified cruzain, Z-FR-AMC fluorescence, no detergent | Potency, µM, without a hit: max response, negative = inhibition, usual class: inhibitors | actives 2.3% (n = 200,000);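 further: plate controls were enzyme without inhibitor for no effect and buffer without enzyme for full effect; nearly all actives have a fitted effect of over 40% in size; top concentration of the series not given in the record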
# Target sequence (P25779 123-467 limits assumed): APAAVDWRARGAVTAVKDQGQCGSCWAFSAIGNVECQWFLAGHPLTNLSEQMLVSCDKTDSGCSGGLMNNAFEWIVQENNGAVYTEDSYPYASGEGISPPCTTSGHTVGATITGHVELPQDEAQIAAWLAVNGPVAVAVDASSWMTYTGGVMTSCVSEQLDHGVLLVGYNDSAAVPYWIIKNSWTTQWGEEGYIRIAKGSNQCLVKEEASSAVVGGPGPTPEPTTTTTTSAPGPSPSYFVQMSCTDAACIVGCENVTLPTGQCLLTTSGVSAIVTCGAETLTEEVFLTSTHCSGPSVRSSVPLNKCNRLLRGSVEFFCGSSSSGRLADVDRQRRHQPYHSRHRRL
#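 Detergent-free condition (0.00005% Triton X-100) in acetate buffer pH 5.5 with DTT. 1.5 nM enzyme and compound were pre-mixed 15 min, then 2 uM Z-FR-AMC substrate added; reaction progress from fluorescence change between first and third reads (60 s).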
# RE007 growth inh: qHTS Assay for Inhibitors of the HIV-1 protein Vpr; S. pombe RE007 Vpr strain, BacTiter-Glo ATP luminescence, 24 h; control for the full effect not named in the record; actives 0.21% (n = 360,000); Potency, µM (titrated, usually from 92.2 µM), for inactives: at the top dose activity change, negative = less growth; AID 651644, 2012; active = well fitted falling curve with a large enough effect; inconclusive = small, poorly fitted or top-dose-only effect; inactive = no such curve, though single readings can be large or run the other way;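 further: on the % scale 0 is the no-effect control and ±100 the full control effect; nearly all actives have a fitted effect of over 50% in size; the assay follows cell death caused by Vpr and the record does not say whether a fall means rescue or toxicity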
#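 Fission yeast RE007 carrying one integrated HIV-1 vpr copy, seeded at OD 0.01 in PMG+AL medium with 23 nL pinned compound. Grown 24 h at 30 degrees; viability read by BacTiter-Glo luminescence after 5 min.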
# Cruzain Triton: qHTS Assay for Promiscuous and Specific Inhibitors of Cruzain (with detergent). Potency, µM, without a hit: max response, negative = inhibition, hits mostly inhibitors. purified cruzain, Z-FR-AMC fluorescence, 0.01% Triton. actives 0.43% (n = 200,000). Cruzipain (Trypanosoma cruzi), P25779. AID 1478, 2009;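 further: plate controls were neutral wells for no effect and buffer without enzyme for full effect; nearly all actives have a fitted effect of over 40% in size; top concentration of the series not given in the record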
#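 Cruzain (1.5 nM) preincubated 15 min at RT with compound in 100 mM sodium acetate pH 5.5, 5 mM DTT, 0.01% Triton X-100. Reaction started with 2 uM Z-FR-AMC; AMC fluorescence (ex 360/em 450 nm) change over 60 s gave rate.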
# SARS PLP yeast: qHTS of Yeast-based Assay for SARS-CoV PLP | actives 0.19% (n = 330,000) | Potency, µM (highest dose often 32.9 µM), for inactives: top-dose activity, positive = growth rescue | AID 485353, 2010 | S. cerevisiae expressing SARS-CoV PLpro, growth rescue; control for the full effect not named in the record; active means well fitted rising curve with a large enough effect; inconclusive means small, poorly fitted or top-dose-only effect; inactive means no such curve, though single readings can be large or run the other way; further: 0% is about no effect; nearly all actives have a fitted effect of over 55% in size; growth read by luminescence after 48 h
# Lassa entry inh: qHTS for Inhibitors of binding or entry into cells for Lassa Virus; Lassa virus pseudotype entry inhibition, cell reporter; control for the full effect not named in the record; Potency, µM (series often up to 37.9 µM), for inactives: at the highest dose activity change, negative = inhibition, most hits filed as inhibitors; actives 1.2% (n = 300,000); AID 540256, 2011; active means well fitted inhibition curve with a large enough effect; inconclusive means small, poorly fitted or top-dose-only effect, or effect the other way; inactive means flat fitted curve, though single readings scatter; tested in HEK293 cells; further: on the % scale 0 is the no-effect control and ±100 the full control effect; nearly all actives have a fitted effect of over 50% in size; luciferase read-out
# Marburg entry inh: qHTS for inhibitors of binding or entry into cells for Marburg Virus; Marburg virus pseudotyped entry inhibition, cell reporter; control for the full effect not named in the record; about a third of the inactives were read at about 46 µM; Potency, µM (doses to about 37.8 µM), for the others: at the top dose activity change, negative = inhibition, most hits filed as inhibitors; actives 1.8% (n = 300,000); AID 540276, 2011; active = well fitted inhibition curve with a large enough effect; inconclusive = small, poorly fitted or top-dose-only effect, or effect the other way; inactive = flat fitted curve, though single readings scatter; tested in HEK293 cells; about a fifth of its hits are not listed in these tables; further: on the % scale 0 is the no-effect control and ±100 the full control effect; luciferase read-out
# StopGo reporter: High Throughput Screening for Foot and Mouth Disease Virus Antivirals; actives 1.2% (n = 410,000); Potency, µM (series often up to 57.9 µM), inactives show top-dose signal change, negative = less light; human cells with a luciferase reporter of 2A StopGo recoding; control for the full effect not named in the record; active = well fitted falling curve with a large enough effect; inconclusive = small, poorly fitted or top-dose-only effect; inactive = no such curve, though single readings can be large or run the other way; tested in HEK293T cells; further: on the % scale 0 is the no-effect control and ±100 the full control effect; nearly all actives have a fitted effect of over 45% in size; luciferase light after 4 h
# * hit, by the source's call; ? = inconclusive; nt = not tested or not shown; [ ] = another dose, or the depositor's remark. Unless noted, the call rests on the fitted dose curve; in most records, active means well fitted curve in the direction sought with a large enough effect; inconclusive means small, poorly fitted or top-dose-only effect, or another doubt; inactive means no such curve, though single readings can be large; an effect the other way counts as inactive or inconclusive. Potency means the concentration at half of the fitted maximal effect.
SMILES,NS1 function inh,Cruzain inh noDet,RE007 growth inh,Cruzain Triton,SARS PLP yeast,Lassa entry inh,Marburg entry inh,StopGo reporter
O=C(COc1ncnc2c(Cl)cc(Cl)cc12)NCCC1=CCCCC1,0%,?,21%,-1.7%,8%,-3%,10%,-4%
CCCc1nn(C)c(C(=O)Nc2cccc3ccccc23)c1Cl,4%,-3%,-10%,-3.1%,20%,8%,-15%,-4%
O=C(CSc1nnc(-c2ccccc2)c(-c2ccccc2)n1)Nc1ccc(Br)cn1,-3%,?,31%,-9.1%,-11%,?,?,0%
Cc1ccc(C)c(N2CCN(C(=O)c3cccn4c(=O)c5ccccc5nc34)CC2)c1,nt,?,nt,-7.3%,nt,-10%[46.1 µM],nt,?
CCOC(=O)N1CCN(C(=O)CN(c2ccc(OC)cc2)S(C)(=O)=O)CC1,-3%,8%,4%,-0.2%,5%,-14%,-4%,7%
CCS(=O)c1ccccc1C(=O)OC(C)C(=O)Nc1ccc(S(=O)(=O)N2CCCC2)cc1 (stereo not drawn),nt,nt,-7%,nt,0%,0%,6%,-10%
COc1ccc(CCNC(=S)N2CCC(C(N)=O)CC2)cc1,8%,nt,9%,nt,0%,16%,19%[46.1 µM],2%
O=C(Cn1ccc([N+](=O)[O-])n1)Nc1nccs1,15%,2%,-1%,1.3%,-7%,?,0%,4%
O=C(CSc1nc(O)cc(=O)[nH]1)N1CCOCC1,-10%,nt,3%,nt,0%,6%[46.1 µM],10%[46.1 µM],27%
Cn1c(CNC(=O)c2ccccc2F)nnc1SCC(=O)c1ccccc1,12%,nt,-4%,nt,5%,0%,13%,-14%
OCCN(CC#CCC(O)(c1ccccc1)C1CCCC1)CCO (stereo not drawn),1%,nt,-4%,nt,0%,-14%,20%,-6%
CSc1nnc([C@@H](NC(=O)OC(C)(C)C)C(C)C)o1,12%,1%,5%,0.5%,12%,17%,-17%,4%
CCOC(=O)C1C(=O)CC(C)(O)C(C(=O)OCC)C1c1ccc(F)cc1 (stereo not drawn),-6%,8%,-5%,0.4%,0%,-6%,15%,-27%
Cn1c(=O)c2c(nc(NCc3ccco3)n2C/C=C/c2ccccc2)n(C)c1=O,-35%,-14%,-1%,-2.5%,0%,10µM*,13µM*,14µM*
CC1N(O)C2CCCCCC2N1O (stereo not drawn),-2%,4%,6%,0.1%,6%,15%,20%,-20%
Cc1ccc(Cl)cc1NC(=O)C1CCCN1S(=O)(=O)c1ccc(-c2ccc(=O)[nH]n2)s1 (stereo not drawn),?,nt,16%,nt,1%,?,-2%[46.1 µM],-10%
CC(=O)NCC12CC3CC(C1)CC(C(=O)O)(C3)C2,-6%,0%,-11%,-0.5%,11%,7%,-3%,11%
Cc1cc2c(nc1C)CCCN2C[C@@H](C)O/N=C1/[C@H]2CCn3c(=O)n(-c4ccccc4)c(=O)n3[C@H]2[C@H](O)[C@@H]2O[C@H]12,4%,?,-12%,-1.4%,5%,-10%,-39%,-28%
CC(=O)N1CCc2c(sc(NC(=O)CCS(=O)(=O)c3ccc(C)cc3)c2C#N)C1,nt,nt,-7%,nt,3%,?,-12%,-6%
CCOc1ccc(N/C(=C(/C(Cl)=C(Cl)Cl)[N+](=O)[O-])n2cncn2)cc1,-12%,-16%,nt,-5.5%,-2%,nt,0%,nt
CCOc1ccc(-c2[nH]ncc2Oc2cccc(OC)c2)c(O)c1,-120%,-13%,?,-13%,-36%,?,?,7%
O=S(=O)(c1cc(Cl)ccc1Cl)n1nnc2ccccc21,1%,1%,-6%,-2.9%,4%,5%,1%,nt
CCN=C1SC(CC(=O)NCc2ccccc2)C(=O)N1CC (stereo not drawn),-3%,nt,-18%,nt,-6%,nt,nt,-16%
COC(=O)c1ccc(S(=O)(=O)N2CCCC2)o1,8%,-9%,6%,-1.0%,0%,4%,4%[46.1 µM],8%
CC(C)NC(=O)CSCc1c(F)cccc1Cl,8%,-1%,-8%,-0.9%,-20%,9%,?,21%
# Next part
SMILES,NS1 function inh,Cruzain inh noDet,RE007 growth inh,Cruzain Triton,SARS PLP yeast,Lassa entry inh,Marburg entry inh,StopGo reporter
CSCCC(NS(=O)(=O)c1ccccc1F)C(=O)NCC(c1ccc(F)cc1)N1CCOCC1 (stereo not drawn),nt,nt,-18%,nt,0%,-3%,-15%,6%
COc1nc(-c2ccccc2)nc(-c2ccccc2)c1C,nt,nt,13%,nt,nt,0%,2%[46.1 µM],-2%
COc1cccc(/C=C2\SC(=S)N(CCC(=O)N3CCCCC3)C2=O)c1,7%,nt,1%,nt,-2%,nt,nt,13%
Cc1ccc(CN2C(=O)CN(C3CCC(C)CC3)C(=O)C2c2ccc(F)cc2)cc1 (stereo not drawn),nt,6%,nt,5.5%,nt,-7%[46.1 µM],nt,-11%
CC1(C)Cc2c(sc3[nH]c(=S)[nH]c(=O)c23)CO1,2%,nt,42%,nt,1%,1%,16%,-6%
COc1ccc(C(=O)CC(=O)C(=O)Nc2cc(OC)c(OC)c(OC)c2)cc1,4%,nt,3%,nt,0%,nt,nt,-27%
O=C(OCc1nnc(-c2ccccc2)o1)c1ccc2c(c1)OCCO2,-41%,-7%,-24%,-6.0%,0%,2%,?,30%[activator]
Cc1ccc(S(=O)(=O)N(CCC(=O)NCc2ccc(S(N)(=O)=O)cc2)c2ccccc2)cc1,nt,nt,4%,nt,3%,?,?,3%
O=C(NCc1cn2ccsc2n1)Nc1ccc(Cl)cc1,-5%,-11%,-3%,-9.1%,8%,-20%,13%,nt
CCOC(=O)C1(CC2CC2)CCN(C(=O)c2ocnc2C)CC1,-1%,nt,-5%,nt,0%,nt,nt,49%[activator]
CC1(C)C(=O)Nc2ccccc2N1C(=O)COC(=O)c1cc(S(C)(=O)=O)ccc1Cl,nt,nt,3%,nt,-4%,3%,1%,-11%
N/C(CS(=O)(=O)c1ccccc1)=N\OC(=O)c1ccc(F)cc1,6%,nt,3%,nt,-5%,29%[46.1 µM],?,11%
NS(=O)(=O)c1ccc(CNC(=O)Cc2cccs2)cc1,?,nt,13%,nt,-4%,24%[46.1 µM],12%[46.1 µM],-9%
COc1cccc(C(=O)N2CCN(Cc3cc(Br)ccc3OC)CC2)c1,-17%,3%,1%,-0.3%,-13%,-29%,-7%,?
COc1ccc2nc(SC(C)C(=O)NC3CCCCC3)[nH]c2c1 (stereo not drawn),nt,nt,-2%,nt,-8%,-7%,-29%[46.1 µM],-15%
COc1ccccc1CNC(=O)CCn1c(=O)c2cccn2c2cccnc21,nt,13%,nt,-0.7%,nt,10%[46.1 µM],nt,14%
Cc1cc(NC(=O)CSc2nccn2-c2cccc(C)c2C)no1,nt,nt,15%,nt,0%,?,?,0%
Cc1ccc(CN(C)C(=O)CCc2nc3sc4c(c3c(=O)[nH]2)CCCC4)o1,2%,nt,-2%,nt,6%,21%,28%,-12%
C=CCN1CCc2cccc3c2C1Cc1ccc(O)c(O)c1-3 (stereo not drawn),11µM*,-13%,nt,3.4%,nt,nt,11µM*,0%
CCN(CC)S(=O)(=O)c1ccc(C)c(NC(=O)CN2C(=O)NC3(CCCC3)C2=O)c1,1%,nt,2%,nt,0%,?,-1%,-15%
O=C(c1ccccc1)N1CN2CN(C(=O)c3ccccc3)CC([N+](=O)[O-])(C2)C1,-6%,-8%,13%,-1.5%,1%,10%,13%,-17%
CSc1cccc(NC(=S)N(Cc2ccccc2)Cc2cccnc2)c1,nt,nt,-21%,nt,-2%,?,-12%[46.1 µM],-14%
O=C1CC2(CCCC2)C(=O)N1CN1CCN(S(=O)(=O)c2ccc(Cl)c(Cl)c2)CC1,nt,nt,-5%,nt,3%,19%,-2%,0%
N#Cc1ccc(Oc2cc(C(F)(F)F)nc(-c3ccccn3)n2)cc1,-10%,3%,5%,7.4%,-1%,6%,?,-2%
Cc1ccc(NC2=CC(c3ccccc3F)N(c3ccc(C)cc3)C2=O)cc1 (stereo not drawn),nt,?,nt,-8.0%,nt,1%[46.1 µM],-10%[46.1 µM],3%
# Carrying on:
SMILES,NS1 function inh,Cruzain inh noDet,RE007 growth inh,Cruzain Triton,SARS PLP yeast,Lassa entry inh,Marburg entry inh,StopGo reporter
S=C(Nc1ccccc1Cl)N1CCCCC1,7%,-2%,nt,-0.3%,8%,1%,1%,6%
CC1=CC(C)C2C(=O)N(O)C(=O)C2C1 (stereo not drawn),4%,-2%,18%,8.1%,5%,-6%,0%,0%
O=C(Nc1ccc2oc(-c3ccc4ccccc4c3)nc2c1)c1cccs1,7%,?,5%,-12%,-9%,?,?,7%
CCc1ccc(-n2nc(C)c3c(C)cc(=O)n(Cc4nc(-c5ccccc5)oc4C)c32)cc1,nt,?,nt,6.7%,nt,-2%[46.1 µM],nt,-2%
CCOC(=O)CSc1nc2c(cnn2-c2ccc(C)cc2)c(=O)[nH]1,?,8%,4%,4.1%,-1%,-24%,10%[46.1 µM],7%
O=C(O)Cc1sc(N/N=C\c2ccccc2)nc1-c1ccccc1,?,?,7%,-9.0%,-26%,-24%,-1%[46.1 µM],-1%
O=C(NNc1nc(-c2ccccc2)cs1)c1cccs1,25%,nt,25%,nt,9%,?,?,22%
O=C(N/N=C/c1ccccc1)c1cccc2ccccc12,nt,nt,10%,nt,nt,-6%[46.1 µM],2%[46.1 µM],38%[activator]
COc1cc(CCCN2C(N)=NC[C@@H]2Cc2ccccc2)cc(OC)c1OC,3%,nt,-11%,nt,0%,nt,nt,-21%
CCCC12CN3CCN(CC(C3)/C1=N\NC(=O)c1ccccc1N)C2,3%,9%,-22%,-1.6%,4%,-1%,?,38%[activator]
C=CCSc1nnc(-c2cc(Br)ccc2N)c(=O)[nH]1,-2%,6%,2%,-7.8%,7%,nt,nt,12%
CCCn1c(=O)c2c(nc(Br)n2CCC)n(C)c1=O,-2%,13%,0%,-5.6%,16%,33%,-21%,-9%
O=C(Nc1ccnn1C1CCN(CCCc2ccccc2)CC1)c1ccccc1,?,nt,-6%,nt,-1%,3%,-11%,-17%

# Hits appear at their usual frequency. About 4.5% of those tested had a hit in this group.
